Assay outcomes as filed in PubChem BioAssay.
N370S GC mod: N370S glucocerebrosidase modulation, Gaucher chaperone candidate | P04062 | N370S GC spleen homogenate, 4MU-glucoside fluorescence | Potency, µM (titrated, usually from 59.4 µM), inactives show at the top dose activity change, negative = inhibition, usual class: inhibitors | 330,000 tested, 0.092% active | AID 2101;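 note: 0% = full enzyme activity and -100% = no enzyme basal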
DT40 TDP1 CPT: growth inhibition of DT40 Tdp1-/-;hTDP1 cells with camptothecin (screen for TDP1 inhibitors); chicken DT40 Tdp1-/-;hTDP1 cells + 20 nM CPT, ATP luminescence, 48 h; Potency, µM (titrated, usually from 46.2 µM), inactives show at the highest dose activity change, negative = growth inhibition, most hits filed as inhibitors; 420,000 tested, 12% active; AID 686979; note: nearly all actives have a fitted effect of over 55% in size
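Chicken DT40 Tdp1-/- cells stably complemented with human TDP1 were seeded at 400 cells/well in medium containing 20 nM camptothecin, exposed to pin-transferred compounds, and grown at 37 °C for at least 48 hr. Viability was read as ATP luminescence.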
* hit, by the source's call; ? = inconclusive; · = not tested or not shown. Calls come from the whole dose curve; as a rule, active = well fitted curve in the direction sought with a large enough effect; inconclusive = small, poorly fitted or top-dose-only effect, or another doubt; inactive = no such curve, though single readings can be large; an effect the other way counts as inactive or inconclusive. Unless noted, % is set by controls: 0 for no effect and ±100 for the full control effect; potency is the fitted concentration of half-maximal effect. Only part of the results is shown; most or all hits stand in other tables.

SMILES | N370S GC mod | DT40 TDP1 CPT
COC(=O)Nc1c(C)nn(Cc2ccccc2C)c1C | 0% | -10%
COc1ccc(CNC(=O)COc2cc(O)c3c(c2)OC(C)(C)CC3=O)cc1 | -4% | 33µM*
COc1ccccc1C(=O)C1CCCN(C(=O)CCC(=O)c2ccccc2)C1 (stereo not given) | 27% | 10µM*
O=C(Nn1cnnc1)C(Sc1ccccc1)c1ccccc1 (stereo not given) | 5% | -5%
Cn1cc(-c2nnnn2-c2cccc(C(F)(F)F)c2)c(C(F)(F)F)n1 | 10% | -19%
O=C(NCc1cccc(C(F)(F)F)c1)N1CCN(S(=O)(=O)c2ccccc2F)CC1 | 0% | -25%
CN(C)S(=O)(=O)c1ccc(C(=O)OCCCN=C2NS(=O)(=O)c3ccccc32)cc1 | 2% | -18%
COc1ccc(/C(C)=N/NC(=O)CNC(=O)c2ccncc2)c(OC)c1 | -8% | 2%
COc1ccc(CCNc2ccc(C(CC(N)=O)NC(=O)c3cc(C)cc(C)c3)cc2[N+](=O)[O-])cc1 (stereo not given) | 1% | -3%
CCc1ccc(-c2nc(CSCC(=O)N3CCN(c4ccccn4)CC3)c(C)o2)cc1 | 2% | 23µM*
O=C(/C=C/c1cccs1)N1CCC2(CC1)Oc1ccc(Cl)cc1C(=O)C21CC(c2ccccc2)=NO1 (stereo not given) | 11% | -3%
Nc1ccnn1Cc1cccnc1 | -1% | -7%
COc1ccc(C)cc1S(=O)(=O)NCCN1CCOCC1 | -4% | 1%
O=[N+]([O-])c1ccccc1S(=O)(=O)Nc1cccc(-c2ccc3nncn3n2)c1 | -5% | -28%
COc1cc(NC(=O)C2=C(N3CCOCC3)/C(=C/c3ccc(Cl)cc3)CC2)cc(OC)c1OC | -7% | 6.5µM*

Five entries from above, arranged by count of non-hydrogen atoms, high to low.
SMILES | N370S GC mod | DT40 TDP1 CPT
O=C(/C=C/c1cccs1)N1CCC2(CC1)Oc1ccc(Cl)cc1C(=O)C21CC(c2ccccc2)=NO1 (stereo not given) | 11% | -3%
O=C(NCc1cccc(C(F)(F)F)c1)N1CCN(S(=O)(=O)c2ccccc2F)CC1 | 0% | -25%
COc1ccc(/C(C)=N/NC(=O)CNC(=O)c2ccncc2)c(OC)c1 | -8% | 2%
O=C(Nn1cnnc1)C(Sc1ccccc1)c1ccccc1 (stereo not given) | 5% | -5%
COC(=O)Nc1c(C)nn(Cc2ccccc2C)c1C | 0% | -10%

More results
SMILES | N370S GC mod | DT40 TDP1 CPT
CN1CCN(c2ccc(NC(=O)c3sc4ccccc4c3Cl)cc2)CC1 | -7% | 12µM*
N#Cc1nc(-c2ccc(OCc3ccc(Cl)cc3)cc2)oc1N1CCOCC1 | ? | -6%
CSc1cccc(NC(=O)C2CCCN2S(=O)(=O)c2ccc(Br)s2)c1 (stereo not given) | 8% | ?
Cc1cc(NC(=O)CSc2nnc(C)n2-c2ccccc2)no1 | -12% | -5%
CN(CC(=O)Nc1cccc(F)c1)C(=O)/C=C/c1ccc(Br)s1 | 1% | ?
O=C(O)c1c2c(nc3ccccc13)/C(=C/c1ccc(O)cc1)CCC2 | -9% | 6%
CCCCCOC(=O)Cc1c(O)c2ccccc2[nH]c1=O | 22% | 8%
CC(=O)Nc1ccc(S(=O)(=O)N2CCCC2)cc1 | 3% | ?
COCCNC(=O)/C(C#N)=C/C=C/c1ccccc1 | -5% | -25%
CCn1ncc(C2=NOC(C(=O)Nc3cnn(C45CC6CC(CC(C6)C4)C5)c3)C2)c1C (stereo not given) | 14% | ?
COc1ccc(Nc2c([N+](=O)[O-])ccc3c2=NC2(CCCCC2)N=3)cc1 | -2% | ?
CC1CN(Cc2cc(=O)[nH]c(C(C)C)n2)CC(C)O1 (stereo not given) | 5% | 16%
O=C(/C=C/c1ccccc1[N+](=O)[O-])NCCc1ccc(F)cc1 | -16% | -19%
COc1ccc(N(CC(=O)Nc2cccc(C)c2)S(=O)(=O)c2c(C)n[nH]c2C)cc1 | -2% | -2%
CCOC(=O)C(NCc1ccccc1OC)(NC(C)=O)C(F)(F)F (stereo not given) | 0% | 3%

Full records, quoted from the list. Order of values: N370S GC mod, DT40 TDP1 CPT
Entry for CN1CCN(c2ccc(NC(=O)c3sc4ccccc4c3Cl)cc2)CC1 → -7%, 12µM*
Entry for COc1ccc(Nc2c([N+](=O)[O-])ccc3c2=NC2(CCCCC2)N=3)cc1 → -2%, ?
Entry for CC1CN(Cc2cc(=O)[nH]c(C(C)C)n2)CC(C)O1 (stereo not given) → 5%, 16%
Entry for COCCNC(=O)/C(C#N)=C/C=C/c1ccccc1 → -5%, -25%
Entry for COc1ccc(N(CC(=O)Nc2cccc(C)c2)S(=O)(=O)c2c(C)n[nH]c2C)cc1 → -2%, -2%

Following part:
SMILES | N370S GC mod | DT40 TDP1 CPT
Fc1ccccc1Cc1nnc2n1N=C(c1ccc(Cl)cc1)CS2 | -2% | -17%
NC(=O)c1noc(C(=O)N(CC(=O)NC2CCCC2)Cc2ccc3c(c2)OCO3)c1N | 2% | -10%
Cn1c(SCC(=O)Nc2ccc(Cl)cc2F)nnc1-c1ccco1 | 0% | 9%
CC(=O)c1ccc(NC(=O)c2cccc(S(=O)(=O)N3CCN(C)CC3)c2)cc1 | -15% | -12%
COc1ccccc1N1CCN(C(=O)C2CCCCN2S(=O)(=O)c2ccc(C)cc2)CC1 (stereo not given) | 5% | 18µM*
C/C(=C\c1ccccc1)CN1CCC(C(=O)N2CCCC(C)C2)CC1 (stereo not given) | -6% | ?
CC(C)C(=O)Nc1ccc(C(=O)NNC(=S)NC(=O)c2ccccc2[N+](=O)[O-])cc1 | -10% | 9%
Cc1ccc(C)c(N2CCN(C(=O)CCn3c(=S)[nH]c4cc5c(cc4c3=O)OCO5)CC2)c1 | 10% | ?
COc1ccccc1NC(=O)c1nnn(Cc2ccccc2)c1NC(C)=O | 5% | -16%
O=C(Cn1nnc(-c2ccccc2NC(=O)c2ccccc2)n1)Nc1ccc2c(c1)OCCO2 | -20% | ?
O=C(Nc1c(Cl)cc(Cl)cc1C(=O)NCCN1CCOCC1)c1ccc(Cl)cc1Cl | 2% | -2%
COc1ccc(/C=C(/NC(=O)c2cccs2)C(=O)N2CCOCC2)cc1OC | 7% | -6%
c1ccc2c3c([nH]c2c1)C(C1CCCCC1)N(Cc1ncc[nH]1)CC3 (stereo not given) | 3% | ?
CCS(=O)(=O)Nc1ccc(-c2nnc(SCC(=O)c3cccc(OC)c3)o2)cc1 | -1% | -26%
Cc1ccc(C2=NN(CC(=O)O)C(=O)CC2)cc1 | -13% | 7%
CC(=O)n1cc([C@@H]2C=C(C(=O)Nc3ccccc3)O[C@H](OCCCCO)C2)c2ccccc21 | -2% | ?
COC(=O)Cn1ccc(N(C)C)c(C#N)c1=O | 3% | -2%
COc1ccc(CCN2CC(C(=O)Nc3cccc(C(C)=O)c3)CC2=O)cc1OC (stereo not given) | -6% | 1%
COC(=O)c1sccc1NC(=O)Cn1nnc(-c2ccc(C)cc2)n1 | 22% | -26%
O=C(N/N=C/C=C/c1ccccc1)C1CC1(c1ccccc1)c1ccccc1 (stereo not given) | 7% | ?
COc1ccccc1N(CC(=O)N1CCCCC1)S(=O)(=O)c1ccccc1 | 2% | ?
CC(C)OCCCNc1nc2c([nH]1)c(=O)n(C)c(=O)n2C | -2% | -16%
N#Cc1c(NCCO)ccc([N+](=O)[O-])c1NCCO | -10% | 7%
Cc1cccn2c(=O)c(C=Nc3ccccc3)c(NCCO)nc12 | 12% | 1%
Cc1cc(F)ccc1S(=O)(=O)Nc1ccccc1C(=O)NC1CCN(Cc2ccccc2)CC1 | -11% | ?
Cc1cc(C)c(OCC(=O)Nc2ccccn2)c([N+](=O)[O-])c1 | 12% | -23%
CCN(CC(=O)Nc1ccccc1C(F)(F)F)C(=O)CN1C(=O)NC2(CCCC2)C1=O | -20% | -8%
Cc1ccc(OCn2c(=O)sc3ccccc32)cc1 | -2% | ?
COc1ccc(NC(=O)NC2CCCCCCC2)cc1OC | 1% | 19%
COc1ccc(OCc2cc(C(=O)N3CCN(CC4CC4)CC3)no2)c(Cl)c1 | -7% | -29%

Part of the list above, with two lines to a compound.
Second line of a record: N370S GC mod	DT40 TDP1 CPT
> COc1ccc(OCc2cc(C(=O)N3CCN(CC4CC4)CC3)no2)c(Cl)c1
    -7%	-29%
> COC(=O)c1sccc1NC(=O)Cn1nnc(-c2ccc(C)cc2)n1
    22%	-26%
> COc1ccc(CCN2CC(C(=O)Nc3cccc(C(C)=O)c3)CC2=O)cc1OC (stereo not given)
    -6%	1%
> COc1ccc(NC(=O)NC2CCCCCCC2)cc1OC
    1%	19%
> Cc1ccc(OCn2c(=O)sc3ccccc32)cc1
    -2%	?

More entries follow:
SMILES | N370S GC mod | DT40 TDP1 CPT
COCCC(=O)N1CCC(Oc2ccc(C(=O)NCCC3=CCCCC3)cc2)CC1 | -3% | 16µM*
O=C(NNC(=O)c1c(O)c2ccccc2[nH]c1=O)c1ccccc1 | -3% | ?
Cc1ccc(CN(c2ccc(C(=O)N3CCOCC3)cc2)S(C)(=O)=O)cc1 | 1% | 2%
CC1=CC(=C(C#N)C#N)C=C(C)N1CCC(C)C | 1% | ?
COCCNC(=O)c1c[nH]c2ccc(OC)cc2c1=O | 5% | -1%
C=CCOC(=O)N1CCN(c2cccc(C(F)(F)F)c2)CC1 | -3% | ?
COc1ccc(N=C2NC(=O)C(CO)(CO)S2)cc1 | -3% | -15%
COc1ccc(-c2[nH]c(-c3ccc(C)cc3)nc2SCC(=O)Nc2nccs2)cc1 | -8% | ?
O=C(CN1C(=O)COc2ccccc21)Nc1ccc(N2CCOCC2)cc1 | -2% | 21%
CCN(CC)CCCNc1ccc(-c2nnc(-c3ccc(OCC(C)C)cc3)o2)cn1 | -5% | 2.9µM*
O=C(O)c1ccc(N2C(=O)CC(SC(=NCc3ccc4c(c3)OCO4)Nc3ccccc3)C2=O)cc1 (stereo not given) | -6% | 2%
Cc1ccc(S(=O)(=O)N2CCC(=O)N([C@H](COCc3cccc(C)c3)Cc3ccccc3)CC2)cc1 | 0% | ·
Cc1ccc2cc(CN(Cc3ccccc3)Cc3nnnn3C3CCCC3)c(=O)[nH]c2c1 | 9% | 18µM*
O=C(CSc1nncn1-c1ccccc1F)NC1CCCCC1 | · | -9%
CCCN1CCC(NC(=O)C2CC=CCC2C(=O)O)CC1 (stereo not given) | 1% | -17%
Cn1nc([N+](=O)[O-])nc1Oc1ccc(C(C)(C)C)cc1 | 10% | ?
Cc1ccc(C(=O)C(C)N(C(=O)c2ccc(Cl)cc2Cl)N2C(=O)CCCC2=O)cc1 (stereo not given) | 13% | 2%
O=C(NCC1CCCO1)/C(=C/c1ccccc1F)NC(=O)c1ccccc1 (stereo not given) | -10% | 5%
Cc1ccc(OCC(=O)NCCCNC(=O)c2ccco2)cc1 | -2% | 6%
Cn1c(=N)n(CC(=O)c2ccc(Br)s2)c2ccccc21 | -18% | 26µM*
Cc1ccc(S(=O)(=O)N2CCOCC2)cc1NC(=O)CN1C(=O)NC2(CCCC2)C1=O | · | 10%
COc1cc2c(cc1OC)C1=CC(=O)C(=O)N1C(C)(C)C2 | 18% | ?
CCn1c(SCC(=O)N/N=C/c2ccncc2)nc2ccccc21 | 8% | ?
CCOc1ccc(CNC(=O)C2CCN(S(=O)(=O)N3CCCC3)CC2)cc1OC | -21% | 0%
CCNc1nc(Oc2ccc(C(=O)OC)cc2)nc(SC)n1 | -1% | -5%
O=c1[nH]c(C2CCCN(S(=O)(=O)c3cccc(F)c3)C2)nc2c1nnn2Cc1ccccc1 (stereo not given) | -10% | -23%
Cc1ccc(C)c(OCc2cc(C(=O)N3CCc4sccc4C3)no2)c1 | -6% | 16µM*
O=C(Nc1ccc(C(=O)N2CCCCC2)cc1)C1=CSCCO1 | 7% | -23%
CCCCn1c(SCC(=O)NC2CCCC2)nc2ccccc2c1=O | 0% | -11%
COCCNC(=O)C(c1ccccc1)N(Cc1cccs1)C(=O)Cn1nnc2ccccc21 (stereo not given) | ? | -4%
CN(C)/C=C/C(=O)c1cccc([N+](=O)[O-])c1 | 13% | 19%
Cn1nc(C(=O)Nc2sc3c(c2C#N)CCCC3)ccc1=O | 11% | -11%
